# High-throughput results: PubChem BioAssay, several laboratories
# PKD1 inh: blocks activity of human protein kinase D1; Q15139; PKD1 kinase fluorescence polarization assay; inhibition, %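 (about 10 µM by stock and volumes)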; 200,000 compounds, 0.056% hits;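 active = inhibition of 50% or more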;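 note: controls were vehicle for no effect and a reference inhibitor for full effect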
# Target sequence (Q15139 whole entry, looked up): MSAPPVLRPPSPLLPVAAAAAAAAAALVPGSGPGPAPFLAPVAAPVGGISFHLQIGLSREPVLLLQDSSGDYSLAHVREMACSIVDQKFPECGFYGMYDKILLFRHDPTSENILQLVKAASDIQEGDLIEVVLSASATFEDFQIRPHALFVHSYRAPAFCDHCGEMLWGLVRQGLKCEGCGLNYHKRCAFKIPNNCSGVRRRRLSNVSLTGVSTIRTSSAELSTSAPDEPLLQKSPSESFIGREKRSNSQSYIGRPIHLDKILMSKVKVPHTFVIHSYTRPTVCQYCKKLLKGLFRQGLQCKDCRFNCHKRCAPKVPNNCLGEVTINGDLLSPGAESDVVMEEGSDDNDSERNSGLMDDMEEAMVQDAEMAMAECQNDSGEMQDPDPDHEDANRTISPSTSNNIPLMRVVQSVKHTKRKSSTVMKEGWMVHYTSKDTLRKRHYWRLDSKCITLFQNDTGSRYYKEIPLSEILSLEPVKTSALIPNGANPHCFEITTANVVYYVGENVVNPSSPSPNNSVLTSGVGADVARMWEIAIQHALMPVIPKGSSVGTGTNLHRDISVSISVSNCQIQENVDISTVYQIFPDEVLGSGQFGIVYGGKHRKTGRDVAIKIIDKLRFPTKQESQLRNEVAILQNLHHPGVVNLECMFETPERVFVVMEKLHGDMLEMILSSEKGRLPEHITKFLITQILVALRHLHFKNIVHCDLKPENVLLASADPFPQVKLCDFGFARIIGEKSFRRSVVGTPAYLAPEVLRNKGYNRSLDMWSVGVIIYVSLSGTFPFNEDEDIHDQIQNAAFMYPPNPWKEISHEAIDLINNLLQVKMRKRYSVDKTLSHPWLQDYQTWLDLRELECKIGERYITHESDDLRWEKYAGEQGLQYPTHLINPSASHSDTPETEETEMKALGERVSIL
# RGS16-Gao: modulates binding between human RGS16 and Galphao | 220,000 compounds, 0.38% hits | bead-based flow cytometry RGS16-Galphao binding, fluorescence; actives lie on both sides | binding response (% of control), % at 10 µM | O15492+P09471;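 active = below 25% or above 175%, edge rows of some plates excepted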;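 note: Galphao activated by GDP with aluminum fluoride before binding; 100% = wells without compound and 0% = beads without RGS; some results beyond the cut were filed as inactive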
# GALR2 ag: activates the human galanin receptor 2. activation, %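 (tested at 5 µM)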. GALR2-expressing cells, agonist activation read-out. AID 803. 140,000 compounds, 0.48% hits;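 active = above mean plus 3 SD of all compounds, about 5% in these data, not always enough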;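 note: 0% = vehicle buffer wells and 100% = reference agonist at full effect; tested in CHO reporter cells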
# HSV replic up: HSV replication enhancement. HSV replication augmentation in cells, fold increase. maximum fold increase. 220,000 compounds, 0.005% hits;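 active = peak rise of 1.5-fold or more in the series; tested in PC3 cells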;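 note: first round at 10 µM; read as green reporter fluorescence; hits show the peak of a series up to 25 µM; 1 = signal of infected wells without compound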
# Insulin prom inh: TRM-6 insulin promoter activity inhibition; TRM-6 cells (human fetal islet line), insulin promoter-eGFP reporter, imaging; reporter expression induced with tamoxifen; inhibition, % at 2 µM; 130,000 compounds, 0.9% hits; AID 1273;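 active = inhibition above the mean plus 3 SD, with well images judged a real hit on visual review, cut at about 60% in these data, passing the limit was not always enough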
# Insulin prom inh cell count: also measured in Insulin prom inh; calls as there; normalized cell count, %; measured here: cell count, toxicity; reference of the scale not given here;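 cells exposed to compound for 48 h; stained nuclei by imaging scaled within each plate; lower means fewer cells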
# HSV replic up primary fold: recorded beside HSV replic up, whose call it bears; fold increase; compound at 10 µM; measured here: primary screen fold increase 10 uM; tested in PC3 cells;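 GFP signal in the first replicate; 1 = infected wells without compound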
# * = called active by the depositor; i = inactive; / = not tested or not shown. Outcome played no part in choosing rows; overall some 1.3% were active at least once.
# Every second line gives: HSV replic up, HSV replic up primary fold, Insulin prom inh cell count, GALR2 ag, RGS16-Gao, PKD1 inh, Insulin prom inh
> CN(C(=O)CCCN1C(=O)c2cccc3cccc(c23)C1=O)c1ccccc1
    i, 1, 89, 0.2, 84, -9, 47
> CCn1c(SCC(=O)N/N=C(\C)c2ccncc2)nnc1-c1ccc(C)cc1
    i, 0.9, /, /, 89, /, /
> COC(=O)NNC(=S)NCc1ccccc1
    i, 0.92, 153, -0.1, 113, -14, 32
> CC1CCN(c2c(NCc3ccc(C(=O)NCc4ccco4)cc3)c(=O)c2=O)CC1
    /, /, 117, 0.0, 72, -9, -7
> Clc1cccc(CN2CCCCCCC2)c1Cl
    i, 0.98, /, 0.7, 105, -7, /
> Cc1ccc2nc(Nc3nc(CSc4nnc(C)s4)cc(=O)[nH]3)nc(C)c2c1
    i, 0.81, /, /, 94, -2, /
> Cc1ccc(C)c(/C=N/NC(=S)NCCc2ccccc2)c1
    i, 0.75, 106, -1.4, 102, 0, -10
> Cc1ccc(OCc2nc(-c3ccccc3)no2)cc1
    i, 1.1, /, /, 101, /, /
> CNC(=O)/C(C#N)=C/c1c(F)cccc1Cl
    i, 1.1, 84, -0.8, 98, -14, 28
> Cc1cc(C)c(NC(=O)C2CCCN2C)c(C)c1 (centres undefined)
    i, 0.74, 299, -1.5, 104, 2, -22
> CCOc1ccc(/C=C/C(=O)c2ccccc2)cc1OC
    i, 0.62, 61, -1.6, 46, 7, 19
> CC1=C(C(=O)OC2CCCCC2)C(c2ccco2)C2=C(CC(C)(C)CC2=O)N1 (centres undefined)
    i, 1.1, 106, -1.5, 104, -23, -16
> Oc1ccccc1CNc1ccc2c(c1)OCCO2
    i, 1, /, /, 94, -5, /
> C=C(C)COc1ccc(-c2[nH]ncc2Oc2ccccc2OC)c(O)c1
    i, 0.76, 146, -0.7, 100, 7, -21
> COc1ccc(CC2(CO)CCN(Cc3cccn3-c3ccccn3)CC2)cc1
    i, 0.96, /, /, 99, 7, /
> CCCCn1c(SCC(=O)N2CCCCC2)nc2cc(S(N)(=O)=O)ccc21
    i, 0.78, /, -0.9, 98, -1, /
> CN(/N=C/c1ccc(O)cc1O)c1nc(-c2ccccc2)cc(-c2ccccc2)n1
    i, 0.53, 113, 0.0, 95, -14, -10
> O=C(Nc1cnn(Cc2ccc(Cl)c(Cl)c2)c1)c1nc2ncccn2n1
    i, 0.89, 90, -0.5, 93, 2, 13
> CC1=C(C#N)C(NC(=O)c2cccc(Cl)c2)(C(F)(F)F)C(=O)N1 (centres undefined)
    i, 1, 109, -1.0, 111, 8, 11
> CCCCn1c(=O)n(Cc2cccc(F)c2)c(=O)c2c1ncn2Cc1ccco1
    i, 0.89, /, -0.9, 99, -1, /
> CN(C)c1ccc(/C=C/C(=O)c2ccc(C(C)(C)C)cc2)cc1[N+](=O)[O-]
    i, 0.66, 142, -0.9, 104, -8, 40
> O=C(/C=C/c1cccs1)Nc1nncs1
    i, 0.98, /, /, 101, /, /
> Cc1ccc(NS(=O)(=O)c2cccc(C(=O)N/N=C/c3c(C)nn(-c4ccccc4)c3N3CCCC3)c2)c(C)c1
    i, 0.84, 125, 0.4, 103, -13, -5
> COc1ccc(/C=C(/C#N)S(=O)(=O)c2ccc(C)cc2)cc1
    i, 0.81, 111, -1.0, 98, 7, 41
> C=CCOc1c(CNc2ncn[nH]2)cccc1OCC
    i, 0.91, 77, -4.2, 100, 12, -344
> COc1cc(CN(C)CCc2ccccc2)ccc1OCc1ccccc1
    i, 0.84, /, 0.3, 95, -3, /
> Cc1nc2sc(C(c3ccc(Cl)cc3)N3CC(C)OC(C)C3)c(O)n2n1 (centres undefined)
    i, 0.91, /, -1.8, 104, -7, /
> COc1ccc(NC(=O)C(C)N(c2ccc(C)cc2)S(C)(=O)=O)cc1 (centres undefined)
    i, 1.1, /, -3.5, 104, 6, /
> O=C(c1cccs1)N1CCN(S(=O)(=O)Cc2ccccc2)CC1
    i, 1, /, -1.4, 270, -8, /
> CCOC(=O)c1cc(N)cc([N+](=O)[O-])c1
    i, 1, 50, -1.0, 106, 1, -27
> CC1CCCCN1C(=O)CN1CCC(c2nc3ccc(Cl)cc3[nH]2)CC1 (centres undefined)
    i, 0.67, 102, /, 101, 5, 35
> O=C(N=C1N=C2C=CC=CN2Cc2ccccc21)c1ccc(S(=O)(=O)N2CCCC2)cc1
    i, 0.84, /, /, 100, /, /
> Cc1ccc2nc(-c3ccc(SCC(=O)Nc4nnc(C)s4)nc3)[nH]c2c1
    i, 0.68, /, 5.3*, 101, 11, /
> COc1ccccc1C(OC(=O)c1cccs1)C(=O)NCC1CCCO1 (centres undefined)
    i, 1, 130, -1.3, 99, 3, 11
> CC1(C)CC(Cc2nc(=S)[nH][nH]2)C(=O)O1 (centres undefined)
    i, 1.1, 94, /, 101, 2, 25
> O=C(O)C1C2C=CC(C2)C1C(=O)Nc1ccc(C(=O)N2CCCCC2)cc1 (centres undefined)
    /, /, 105, -0.7, 101, -13, 12
> N#Cc1c(/N=C/c2ccco2)oc(-c2ccccc2)c1-c1ccccc1
    /, /, /, 0.1, 105, 5, /
> Cc1ccc2c(c1)CCCN2C(=O)c1c(C)noc1C
    i, 0.74, 122, -1.5, 104, -3, 23
> O=C(COC(=O)C1CCN(S(=O)(=O)c2cccc3cccnc23)CC1)c1ccc(F)cc1
    i, 1, 124, -1.4, 163, -19, 6
> Cc1ccc(S(=O)(=O)c2nc(-c3cccs3)oc2NCCCN(C)C)cc1
    i, 0.86, 100, -0.9, 72, 2, -58
> O=c1cc(CN2CCN(S(=O)(=O)c3ccc4c(c3)OCCO4)CC2)c2ccc(O)cc2o1
    i, 0.82, 68, 6.2, 94, 3, -11
> CC(C)c1ccc(N(CC(=O)NN=C2CCN(C)CC2)S(=O)(=O)c2ccccc2)cc1
    i, 0.99, 85, /, 108, -5, 10
> O=C(/C=C/c1ccc(Cl)cc1)NC(=S)Nc1ccc(N2CCOCC2)c(Cl)c1
    i, 0.94, 90, -1.1, 94, 6, 29
> Cc1ccccc1C(=O)NC(NCc1ccco1)C(Cl)(Cl)Cl (centres undefined)
    i, 0.79, /, -0.8, 102, 3, /
> NS(=O)(=O)c1ccc(CCNC(=O)C2CCN(S(=O)(=O)c3ccccc3)CC2)cc1
    i, 0.78, /, /, 101, -2, /
> c1ccc2c(c1)oc1c(NCCN3CCOCC3)ncnc12
    i, 0.88, 96, -1.3, 95, -5, -24
> Cc1ccc2cc(CN(CCCN(C)C)C(=O)NCc3ccccc3)c(=O)[nH]c2c1C
    i, 0.98, 122, 0.0, 101, -11, -80
> CC(=O)c1ccc(NC(=O)N2CCc3ccccc3C2)cc1
    i, 0.91, /, /, 102, -7, /
> S=C(Nc1ccccc1)N1CCCCCCC1
    i, 0.93, 88, /, 107, 2, -7
> C#CCSc1nc(-c2cccs2)ccc1C#N
    i, 0.91, 69, -0.7, 93, -3, -12
> COc1ccc(S(=O)(=O)N2CC(O)CC2C(=O)OCC(=O)Nc2ccc(Cl)cn2)cc1 (centres undefined)
    i, 1, 59, -5.7, 102, -2, 43
> COc1cccc2c1OCC(C(=O)O)C2 (centres undefined)
    i, 0.96, 93, /, 108, 1, -7
> CCC(C)(C)n1nnnc1C(c1ccc(C)cc1)N1CCCC1 (centres undefined)
    i, 0.81, /, -3.0, 102, -3, /
> COc1ccc(C(=O)N(CCCO)C(C)C(=O)NC2CCCCC2)cc1OC (centres undefined)
    i, 1, /, -2.1, 100, 3, /
> Cc1ccc(Cn2cccc(NC(=O)NC3CCCCC3)c2=O)cc1
    i, 1, 95, -1.4, 96, -6, 31
> CCN(CC)CCCNC(=O)c1sc2ncn(CC(=O)Nc3ccc(C)c(Cl)c3)c(=O)c2c1C
    i, 0.72, 126, /, 108, 6, -29
> COc1cc(C2C(C#N)=C(C)NC3=C2C(=O)CC(C)(C)C3)cc(OC)c1O (centres undefined)
    i, 1.1, /, -1.0, 98, -9, /
> Cc1cc(C(=O)N2CCN(c3ccccc3)CC2)no1
    i, 0.99, /, -0.7, 93, 12, /
> CCCCC(=O)NC(=S)Nc1ccccc1C(=O)Nc1ccccc1
    i, 1.1, 149, -1.9, 99, -6, -85
> CC(=O)Nc1cccc(N2C(=O)CC(Cc3ccccc3)C2=O)c1 (centres undefined)
    i, 1, /, -1.6, 117, -12, /

# Full records, looked up by structure:
# Cc1ccccc1C(=O)NC(NCc1ccco1)C(Cl)(Cl)Cl (centres undefined) as listed: HSV replic up = i; HSV replic up primary fold = 0.79; Insulin prom inh cell count = /; GALR2 ag = -0.8; RGS16-Gao = 102; PKD1 inh = 3; Insulin prom inh = /
# O=C(Nc1cnn(Cc2ccc(Cl)c(Cl)c2)c1)c1nc2ncccn2n1 as listed: HSV replic up = i; HSV replic up primary fold = 0.89; Insulin prom inh cell count = 90; GALR2 ag = -0.5; RGS16-Gao = 93; PKD1 inh = 2; Insulin prom inh = 13

# Next part:
# Every second line gives: HSV replic up, HSV replic up primary fold, Insulin prom inh cell count, GALR2 ag, RGS16-Gao, PKD1 inh, Insulin prom inh
> COc1ccccc1NC(=O)/C(C#N)=C/c1cc([N+](=O)[O-])ccc1N1CCCC1
    i, 1.3, /, 1.1, 113, 9, /
> Cc1ccc(CSc2nc3sc(C)c(C)c3c(=O)n2Cc2ccco2)cc1
    i, 0.79, 87, -1.1, 94, -3, -13
> O=C(Nc1ccc2c(c1)OCCO2)NC1CCCCC1
    i, 0.96, 93, -0.5, 102, -3, -44
> CC(=O)Nc1ccc(C)c(NC(=S)Nc2ccc(F)cc2)c1
    i, 1.2, /, /, 111, /, /
> CN1CC(=O)N(CCOc2ccccc2)C1=O
    /, /, 94, -1.9, 107, -5, 4
> CCSc1nnc(NC(=O)Cn2cnc3c2c(=O)n(C)c(=O)n3C)s1
    i, 0.93, /, /, 94, -2, /
> Cc1cccc(-c2cc3nc4c(c(N5CCC6(CC5)OCCO6)n3n2)CCCC4)c1
    /, /, 97, -0.7, /, -1, -5
> N#CC1=C(N2CCOCC2)/C(=C\c2ccccc2)CC1
    i, 1, 97, -0.8, 100, 3, -13
> CCOC(=O)CSc1nc(C)[nH]c1[N+](=O)[O-]
    i, 1, 107, /, 102, 4, 26
> NCc1nc(-c2ccc(Cl)cc2)no1
    i, 0.92, /, /, 97, -8, /
> CC(=O)c1c(O)cc(C(C)C)n(-c2ccccc2)c1=O
    i, 0.91, 93, -1.4, 99, -3, -10
> CCN(CC)CCCNC(=O)C1c2ccccc2C(=O)N1Cc1ccc(C)cc1 (centres undefined)
    i, 1.1, 167, 0.7, 99, -12, -23
> CC(C)c1nc(SCC(=O)Nc2ccc(N3CCOCC3)cc2)c2ccccc2n1
    i, 0.88, 93, -0.7, 96, -7, 47
> Cc1ccnc(NS(=O)(=O)c2ccc(NC(=O)c3c(-c4ccccc4Cl)noc3C)cc2)n1
    i, 0.92, 91, -0.6, 112, -4, 32
> CC(=O)Nc1nc2ccccc2n1CCOc1ccccc1
    i, 1, 57, -1.4, 100, -6, 3
> CCCC(=O)Nc1ccc(C(=O)Nc2nnc(COCC)s2)cc1
    i, 0.88, 79, -1.1, 93, -6, -408
> O=C(NCc1ccco1)C(c1cccs1)N(C(=O)Cc1cccs1)c1ccccc1 (centres undefined)
    i, 0.99, /, -1.6, 98, 5, /
> CCOCc1nnc(NC(=O)c2cc(OC)c(OC)c(OC)c2)s1
    i, 0.97, /, /, 109, -3, /
> Cc1cc(Cl)ccc1OCC(=O)NCc1ccncc1
    i, 0.99, 81, -1.9, 101, -7, 6
> O=C(c1ccc(F)cc1)N1CCN(c2ccc(N3CCOCC3)nn2)CC1
    i, 1, /, /, 98, /, /
> CC(C)n1nc(C(=O)Nc2nnc(C3CC3)s2)c2ccccc2c1=O
    i, 0.92, 109, /, 100, 3, -33
> CCS(=O)(=O)NCC(c1cccnc1)N1CCN(c2ccccc2)CC1 (centres undefined)
    i, 0.99, /, -1.4, 103, 0, /
> Oc1oc(-c2ccccc2Br)nc1/C=N/c1ccccn1
    /, /, 136, /, 101, -5, -14
> O=C(/C=C/c1ccccc1[N+](=O)[O-])Nc1ccccc1
    i, 0.99, /, /, 99, 1, /
> N#CC(c1ccc(Cl)nn1)c1ccccc1Cl (centres undefined)
    i, 1, 147, -1.7, 101, -3, -19
> Cc1ccc2oc(=O)c3cnn(CC(=O)N4CCCc5ccccc54)c3c2c1
    i, 1, /, -2.8, 102, -1, /
> CCN(CC)CCOC(=O)c1cccc2c1-c1ccccc1C2O (centres undefined)
    i, 1.2, /, /, 112, /, /
> CCCC(=O)NCCCc1nc2ccccc2n1CCC
    i, 0.91, /, -2.3, 101, -12, /
> CCCCCCC(=O)Cc1cc(OC)c(OC)cc1C=C(C(=O)OCC)C(=O)OCC
    i, 1, 140, -0.9, 62, -12, -5
> COc1ccc(CSc2nc(N3CCOCC3)c3c(c2C#N)CC(C)(C)OC3)cc1
    i, 1, 130, -0.4, 105, -4, -19
